# DUX4 inh: blocks DUX4-driven transcriptional activation; 293T-iDUX4 ZSCAN4-Gaussia luciferase reporter, 24 h; hits give low values; activity change, negative = inhibition, % (concentration not given with the values); 0.8% of 37,000 active;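 active = -10% or lower and over 25 points stronger than a control reporter; inconclusive = -10% or lower with a smaller gap; inactive = above -10%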;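 also: 0% = median of neutral control wells and -100% = median of positive control wells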
# DUX4 inh difference: further read-out of DUX4 inh, marked with its call; Gaussia minus Italica difference, %; measured here: selective DUX4 reporter inhibition;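 worked out from the two reporters; negative = selective loss of the DUX4 reporter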
# DUX4 inh control: second read-out of DUX4 inh, no call of its own (marks repeat the call); activity change, negative = inhibition, %; measured here: Italica tet-on control reporter;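 0 = neutral control and -100 = positive control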
# Active calls of the source: *; ? = inconclusive; nt = not tested or not shown.
# Start of the listing, in advance, five compounds:
SMILES,DUX4 inh,DUX4 inh difference,DUX4 inh control
CCCC(=O)Nc1ccc2c(c1)OC[C@H](C)N(CCc1ccccc1)C[C@@H](C)[C@@H](OC)CN(C)C2=O,-6,-8,2.2
Cc1cccc(S(=O)(=O)N(C)C[C@@H]2OCc3ccccc3-c3c(n(C)c4ccccc34)C(=O)N([C@H](C)CO)C[C@H]2C)c1,?,nt,nt
O=C(Nc1ccccc1F)N[C@@H]1CC[C@@H](CC(=O)N2CCCCC2)O[C@H]1CO,-3,-5,2.7
N#C[C@H]1[C@H](c2ccc(C#CC3(O)CCCC3)cc2)[C@H](CO)N1C(=O)C1CCC1,1,-2,2.8
O=C(C[C@H]1C[C@@H]2c3cc(NC(=O)CC4CC4)ccc3O[C@@H]2[C@@H](CO)O1)NCc1cccc(F)c1,-3,0,-3.1

# This part in full, repeating the preview:
SMILES,DUX4 inh,DUX4 inh difference,DUX4 inh control
CCCC(=O)Nc1ccc2c(c1)OC[C@H](C)N(CCc1ccccc1)C[C@@H](C)[C@@H](OC)CN(C)C2=O,-6,-8,2.2
Cc1cccc(S(=O)(=O)N(C)C[C@@H]2OCc3ccccc3-c3c(n(C)c4ccccc34)C(=O)N([C@H](C)CO)C[C@H]2C)c1,?,nt,nt
O=C(Nc1ccccc1F)N[C@@H]1CC[C@@H](CC(=O)N2CCCCC2)O[C@H]1CO,-3,-5,2.7
N#C[C@H]1[C@H](c2ccc(C#CC3(O)CCCC3)cc2)[C@H](CO)N1C(=O)C1CCC1,1,-2,2.8
O=C(C[C@H]1C[C@@H]2c3cc(NC(=O)CC4CC4)ccc3O[C@@H]2[C@@H](CO)O1)NCc1cccc(F)c1,-3,0,-3.1
C[C@@H]1CN([C@@H](C)CO)C(=O)c2cc(C#CC3(O)CCCC3)cnc2O[C@@H]1CN(C)Cc1ccccc1,-2,0,-1.7
C[C@@H]1CN([C@@H](C)CO)C(=O)c2cc(C#CCN(C)C)cnc2O[C@H]1CN(C)Cc1cccc(C(=O)O)c1,3,4,-0.8
CCCN1C[C@@H](C)[C@@H](OC)CN(C)C(=O)c2cc(NC(=O)Nc3cccc(F)c3)ccc2OC[C@@H]1C,-9,-4,-5.7
COC(=O)C[C@H]1CC[C@@H]2[C@H](COc3ccc(NC(=O)c4cccc(Cl)c4)cc3C(=O)N2C)O1,-3,-4,0.9
Cc1ccccc1-c1ccc([C@@H]2[C@H]3CN(C(=O)c4cccnc4)CCCCN3[C@H]2CO)cc1,-9,3,-12
COc1ccc(-c2ccc([C@H]3[C@@H](C#N)N[C@@H]3CO)cc2)cc1,1,0,0.7
O=C(Cc1cccnc1)N[C@H]1CC[C@@H](CCNS(=O)(=O)c2ccccc2Cl)O[C@@H]1CO,1,5,-4.1
O=C(C[C@H]1CC[C@H]2[C@@H](COC[C@@H](O)CN2C(=O)c2cccnc2)O1)Nc1ccc(-c2ccccc2)cc1,18,0,18
CN(C)C(=O)C[C@@H]1C=C[C@H](NC(=O)c2ccc(F)cc2)[C@H](CO)O1,4,3,0.8
C[C@@H]1CN([C@@H](C)CO)C(=O)CCCn2nncc2CO[C@H]1CN(C)S(=O)(=O)c1cn(C)cn1,7,3,3.5
C[C@H](CO)N1C[C@H](C)[C@@H](CN(C)Cc2ccc3c(c2)OCO3)OCCCC[C@H](C)Oc2ccc(NS(=O)(=O)c3cn(C)cn3)cc2C1=O,0,4,-4.1
C[C@@H](NC(=O)C[C@H]1CC[C@@H]2[C@@H](COc3ccc(NS(=O)(=O)c4ccc(Cl)cc4)cc3C(=O)N2C)O1)c1ccccc1,-1,-2,0.5
CO[C@@H]1CN(C)C(=O)c2ccc(NC(=O)c3ccno3)cc2OC[C@@H](C)N(S(C)(=O)=O)C[C@H]1C,2,-2,4.3
O=C(C1CCOCC1)N1C[C@@H]2[C@H](c3ccccc31)[C@H](CO)N2Cc1ccc(Cl)cc1,-2,0,-2.0
O=C(C[C@@H]1C[C@@H]2c3cc(NC(=O)NC4CCCC4)ccc3O[C@@H]2[C@@H](CO)O1)NCc1ccccc1F,11,1,10
CCS(=O)(=O)N1CCC2(CC1)CN(C(=O)c1ccc(F)cc1)[C@H](CO)c1[nH]c3cc(OC)ccc3c12,13,0,12
COCCNC(=O)[C@H]1[C@H](CO)[C@H]2Cn3c(ccc(C4=CCCCC4)c3=O)[C@@H]1N2C(=O)C1CCCC1,1,-2,3.6
C[C@@H](O)C#Cc1ccc([C@H]2[C@H](CO)N3CCCCN(C(=O)c4cccc(F)c4)C[C@@H]23)cc1,18,-3,21
C/C=C/c1ccc([C@H]2[C@@H](CO)N3C(=O)CN(C(=O)NC4CCCCC4)C[C@@H]23)cc1,-1,-3,1.3
CNC[C@@H]1Oc2c(NS(=O)(=O)c3cn(C)cn3)cccc2C(=O)N([C@H](C)CO)C[C@H]1C,-2,-2,-0.2

# (next part)
SMILES,DUX4 inh,DUX4 inh difference,DUX4 inh control
C[C@H](CO)N1C[C@H](C)[C@@H](CN(C)S(=O)(=O)c2cccc(F)c2)OCc2ccccc2-c2ccccc2C1=O,7,1,6.0
CCCC(=O)N1C[C@H]2[C@@H](c3ccccc31)[C@@H](CO)N2Cc1cocn1,1,3,-1.9
COc1cccc(S(=O)(=O)N2CCCCN3[C@@H](CO)[C@H](c4ccc(C#CCC(C)C)cc4)[C@@H]3C2)c1,9,4,4.2
C[C@H](CO)N1C[C@H](C)[C@@H](CN(C)C(=O)c2ccccc2)OCCCC[C@H](C)Oc2ccc(NS(=O)(=O)c3ccc(F)cc3)cc2C1=O,2,0,2.4
O=C(c1ccccn1)N1CC2(C1)[C@H](c1ccccc1)[C@@H](CO)N2Cc1ccc(F)cc1,-4,-6,2.2
N#Cc1cccc(-c2ccc3c(c2)[C@@H]2[C@@H](CCN2C(=O)c2ccncc2)[C@@H](CO)N3)c1,?,nt,nt
OC[C@H]1[C@@H](c2ccc(-c3ccccc3F)cc2)[C@H]2CN(Cc3cccnc3)CCCCN21,-8,-3,-4.9
C[C@H]1CN([C@@H](C)CO)C(=O)c2cccc(NC(=O)C3CCCCC3)c2O[C@@H]1CN(C)C(=O)Nc1ccc(F)cc1,7,4,2.3
COCCNC(=O)C[C@@H]1C[C@@H]2c3cc(NC(=O)CN(C)C)ccc3O[C@@H]2[C@H](CO)O1,4,1,2.7
CCC(=O)N[C@@H]1C=C[C@@H](CC(=O)NCc2cc(F)cc(F)c2)O[C@H]1CO,9,4,4.4
CCc1csc(N2[C@H](C#N)[C@H](c3ccc(C4=CCCC4)cc3)[C@H]2CO)n1,-1,4,-5.1
CN(C)CC(=O)N[C@@H]1CC[C@@H](CCNC(=O)C2CCC2)O[C@H]1CO,0,1,-0.5
CC(=O)NC[C@H]1[C@@H](c2ccc(-c3cccnc3)cc2)[C@@H](CO)N1C(=O)C1CCC1,2,-1,2.9
O=C(C[C@H]1C[C@H]2c3cc(NC(=O)c4cccnc4)ccc3O[C@H]2[C@H](CO)O1)NCCN1CCCCC1,8,8,-0.5
C[C@@H]1CN([C@@H](C)CO)C(=O)c2cc(NC(=O)CCCCCC(=O)Nc3ccccc3N)ccc2O[C@@H](C)CCCCO[C@@H]1CN(C)CC1CCCCC1,2,-2,4.4
O=S(=O)(c1cccs1)N1CCCCN2[C@@H](CO)[C@@H](c3ccc(C4=CCCC4)cc3)[C@@H]2C1,-5,1,-5.8
CC(=O)N1[C@@H]2Cn3c(ccc(C4=CCCC4)c3=O)[C@H]1[C@@H](C(=O)NCC1CC1)[C@@H]2CO,0,7,-6.7
CCNC(=O)Nc1ccc2c(c1)C(=O)N(C)[C@H]1CC[C@H](CC(=O)NC3CCCCC3)O[C@H]1CO2,1,-2,2.8
COc1cccc(NC(=O)N2C[C@@H](O)COC[C@@H]3O[C@@H](CC(=O)NCCCN4CCOCC4)CC[C@H]32)c1,32,19,13
O=S(=O)(c1ccc(F)cc1)N1CC[C@@H]2[C@@H](CO)Nc3ccc(-c4ccc(F)cc4)cc3[C@@H]21,?,nt,nt
O=C(O)[C@@H]1[C@@H](CO)[C@@H]2Cn3c(ccc(-c4ccc(F)cc4)c3=O)[C@@H]2N1C(=O)Nc1ccccc1,4,5,-1.4
CC(C)NC(=O)N[C@@H]1CC[C@@H](CC(=O)NCCCN(C)C)O[C@H]1CO,7,2,4.7
COCC(=O)N1CC2(C1)CN(C(=O)Cc1ccccc1)[C@@H](CO)c1c2c2ccc(OC)cc2n1C,13,3,9.2
O=C(C[C@H]1C[C@H]2c3cc(NC(=O)CC4CC4)ccc3O[C@H]2[C@@H](CO)O1)NCc1cc(F)ccc1F,1,-1,1.9
CCCC#Cc1cnc2c(c1)C(=O)N([C@@H](C)CO)C[C@H](C)[C@@H](CN(C)S(=O)(=O)c1cccc(OC)c1)O2,-1,-7,6.1

# A different layout for some results above.
CN(C)CC(=O)N[C@@H]1CC[C@@H](CCNC(=O)C2CCC2)O[C@H]1CO
  DUX4 inh: 0
  DUX4 inh difference: 1
  DUX4 inh control: -0.5

COCCNC(=O)C[C@@H]1C[C@@H]2c3cc(NC(=O)CN(C)C)ccc3O[C@@H]2[C@H](CO)O1
  DUX4 inh: 4
  DUX4 inh difference: 1
  DUX4 inh control: 2.7

CC(C)NC(=O)N[C@@H]1CC[C@@H](CC(=O)NCCCN(C)C)O[C@H]1CO
  DUX4 inh: 7
  DUX4 inh difference: 2
  DUX4 inh control: 4.7

# The list goes on:
SMILES,DUX4 inh,DUX4 inh difference,DUX4 inh control
CS(=O)(=O)Nc1ccc2c(c1)[C@H]1C[C@H](CC(=O)NCC3CC3)O[C@H](CO)[C@H]1O2,2,0,2.7
COc1ccc(NC(=O)N(C)C[C@H]2Oc3ncc(-c4cccnc4)cc3C(=O)N([C@H](C)CO)C[C@@H]2C)cc1,-1,-3,1.9
COc1cccc(C#Cc2cnc3c(c2)C(=O)N([C@@H](C)CO)C[C@@H](C)[C@@H](CN(C)C(=O)C2CCCCC2)O3)c1,-4,-4,0.2
CN(C)c1ccc2c(c1)[C@H]1C[C@H](CC(=O)NCc3ccc(-c4ccccc4)cc3)O[C@@H](CO)[C@H]1O2,7,3,4.3
O=C(C[C@H]1CC[C@H]2[C@@H](COC[C@@H](O)CN2C(=O)c2cnccn2)O1)NCc1ccc(F)cc1,11,7,4.3
COc1ccccc1S(=O)(=O)N(C)C[C@@H]1Oc2cc(C#CCC(C)C)ccc2S(=O)(=O)N([C@@H](C)CO)C[C@H]1C,2,0,2.1
N#C[C@@H]1[C@H](c2ccc(C#Cc3ccccc3F)cc2)[C@@H](CO)N1C(=O)C1CCC1,-2,-1,-1.4
Cn1cnc(CCNC(=O)C[C@H]2CC[C@H]3[C@@H](COC[C@H](O)CN3C(=O)Nc3ccc(Cl)cc3)O2)c1,-2,-10,7.6
CO[C@H](CN(C)C(=O)c1ccc2c(c1)OCO2)[C@H](C)CN([C@H](C)CO)S(=O)(=O)c1ccc(F)cc1,-5,-4,-0.8
COCC(=O)N1CCC2(CC1)CN(Cc1cccc(Cl)c1)[C@H](CO)c1[nH]c3cc(OC)ccc3c12,2,1,1.0
O=C(C[C@H]1C=C[C@@H](NS(=O)(=O)c2ccc(F)cc2)[C@@H](CO)O1)NCc1ccncn1,4,2,2.3
COc1ccc2c3c(n(C)c2c1)[C@H](CO)N(C)CC31CCN(S(=O)(=O)c2cn(C)cn2)CC1,17,0,17
C[C@H]1CN([C@@H](C)CO)C(=O)c2ccccc2-c2ccccc2CO[C@H]1CN(C)S(=O)(=O)c1ccc(F)cc1,13,7,6.2
O=C(NCC[C@H]1CC[C@@H](NC(=O)C2CCOCC2)[C@@H](CO)O1)c1cc(Cl)cc(Cl)c1,1,4,-2.8
CN1C(=O)c2cc(NC(=O)Cc3cccs3)ccc2OC[C@@H]2O[C@@H](CC(=O)NCCc3ccncc3)CC[C@H]21,-3,-2,-1.3
O=C(C[C@@H]1C[C@@H]2c3cc(NC(=O)c4cccnc4)ccc3O[C@@H]2[C@H](CO)O1)NCC1CC1,4,5,-0.2
CCc1csc(N2[C@H](C#N)[C@H](c3ccccc3-c3ccc(F)cc3)[C@H]2CO)n1,-9,5,-14
CC(C)NC(=O)N1[C@@H](CO)[C@H](c2ccccc2)C12CN(C(=O)c1ccccn1)C2,13,10,3.2
O=C(C[C@@H]1C[C@H]2c3cc(NS(=O)(=O)c4ccc(F)cc4)ccc3O[C@H]2[C@@H](CO)O1)NCCc1ccccc1,0,4,-4.0
C[C@H](CO)N1C[C@H](C)[C@@H](CN(C)Cc2ccc(C(F)(F)F)cc2)OCc2cnnn2CCCC1=O,6,7,-1.6
O=C(C[C@@H]1C[C@@H]2c3cc(NC(=O)NC4CCCC4)ccc3O[C@@H]2[C@H](CO)O1)NCc1ccc2c(c1)OCO2,-2,-7,5.1
CCCC(=O)Nc1ccc2c(c1)OC[C@H](C)NC[C@@H](C)[C@H](OC)CN(C)C2=O,-3,-4,1.0
C/C=C/c1cnc2c(c1)C(=O)N([C@H](C)CO)C[C@H](C)[C@@H](CN(C)S(=O)(=O)c1ccc(OC)cc1)O2,0,1,-0.2
CCN1[C@H](C(=O)N[C@@H](C)c2ccccc2)[C@@H](CO)[C@@H]2Cn3c(ccc(-c4cccc(F)c4)c3=O)[C@@H]21,?,nt,nt
O=C(C[C@@H]1CC[C@H]2[C@@H](COC[C@H](O)CN2Cc2ccc(C(F)(F)F)cc2)O1)N1CCc2ccccc2C1,?,nt,nt
O=S(=O)(c1ccccc1)N1CCCCN2[C@H](CO)[C@H](c3ccc(-c4ccccc4)cc3)[C@@H]2C1,?,nt,nt
CCCC(=O)Nc1ccc2c(c1)C(=O)N(C)[C@@H]1CC[C@@H](CC(=O)NCCN3CCCCC3)O[C@@H]1CO2,1,0,1.0
CN(C)c1ccc2c(c1)[C@@H]1C[C@H](CC(=O)NCc3ccccc3F)O[C@H](CO)[C@@H]1O2,4,5,-1.2
COCC(=O)N1CCCCN2[C@H](CO)[C@@H](c3ccc(-c4ccc(F)cc4)cc3)[C@@H]2C1,13,11,2.2

# A portion of the library; rates above refer to the full screens.
